VDR inhibitor – blocks the human vitamin D receptor; VDR-SRC2-3 peptide fluorescence polarization, 2 h; P11473; 400,000 compounds, 0.93% hits; AID 504847; Potency, µM, for inactives: max response, negative = inhibition, most hits filed as inhibitors; active = well fitted inhibition curve with a large enough effect; inconclusive = small, poorly fitted or top-dose-only effect, or another doubt; inactive = no such curve, though single readings can be large or run the other way; also: series mostly up to about 120 µM
Target sequence (P11473 whole entry, looked up): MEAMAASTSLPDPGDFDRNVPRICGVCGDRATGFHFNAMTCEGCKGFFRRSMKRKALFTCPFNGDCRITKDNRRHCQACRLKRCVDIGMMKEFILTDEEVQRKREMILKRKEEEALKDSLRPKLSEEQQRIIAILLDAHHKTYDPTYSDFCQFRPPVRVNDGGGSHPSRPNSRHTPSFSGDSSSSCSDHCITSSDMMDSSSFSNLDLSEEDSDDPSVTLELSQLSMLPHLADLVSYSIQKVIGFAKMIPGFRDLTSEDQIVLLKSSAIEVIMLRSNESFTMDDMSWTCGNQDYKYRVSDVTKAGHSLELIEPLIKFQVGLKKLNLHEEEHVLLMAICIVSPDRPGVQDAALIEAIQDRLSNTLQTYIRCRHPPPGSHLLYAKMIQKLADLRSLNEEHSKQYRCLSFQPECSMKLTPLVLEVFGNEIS
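FP read-out; VDR + SRC2-3 coactivator peptide; 23 nl compound by pintool; 2 h RT incubation; reagents held at 4 deg C, protected from light.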
Starred values were filed as active, the others as inactive; ? = inconclusive; & = joins results of further samples. % is scaled to controls: 0 for no effect and ±100 for the full control effect; potency is read from the fitted curve at half-maximal effect.

SMILES	VDR inhibitor
CCN(CC)C(=O)[C@H]1C[C@H](CC(=O)NCc2ccc(OC)c(OC)c2)C(=O)N2CCc3c([nH]c4cc(-c5ccco5)ccc34)[C@]12C	-3%
O=C(Oc1cccnc1)c1ccc(Cl)c(Cl)c1	5%
O=C(COC(=O)c1cc(=O)c2ccccc2o1)NC1CCCCC1	5%
CC1CCCCN1S(=O)(=O)CCNC(=O)c1ccccc1 (stereo not given)	19%
Cc1ccc(-c2csc(N)n2)s1	?
CCN(CC(=O)Nc1ccc(NC(C)=O)cc1)C(=O)CCCN1C(=O)c2ccccc2C1=O	2%
C(/C=C/c1ccccn1)=C\c1ccccc1	-5%
Cc1nc2nncn2c(NCc2ccc(F)cc2)c1C	9%
CSCCC(NS(=O)(=O)c1ccccc1F)C(=O)N1CC=C(c2ccccc2)CC1 (stereo not given)	2%
c1ccc(CCc2nn3c(Cc4ccccc4)nnc3s2)cc1	79µM*
CCCOC(=O)CSc1nnc(-c2ccccc2Cl)o1	-4%
CN(C)CCCN1c2ccc([N+](=O)[O-])cc2CCc2cc([N+](=O)[O-])ccc21	?
O=C(c1ccccc1C(F)(F)F)N1CCN(S(=O)(=O)c2ccccc2)CC1	4%
CC1(C)CC(/C=C/c2ccccc2)=Nc2ccccc2N1	?
O=C(CCNC(=O)c1ccc(Br)cc1)NNC(=O)c1ccccc1	-9%
CC(C)C(NC(=O)c1ccccc1F)C(=O)NCc1ccc(F)cc1 (stereo not given)	16%
Cc1ccc(NC(=O)C(C)c2cccc(C(=O)c3ccccc3)c2)cc1 (stereo not given)	14%
COC(=O)c1cc(=O)nc2sc3cc(OC)ccc3n12	18%
CCCCNS(=O)(=O)CCNCCc1ccccc1	-5%
CC(C)(C)C(=O)/C=C/Nc1ccccc1O	-15%
COCCCNC(=O)c1ccccc1C(F)(F)F	?
C[N+]1(C)CCC[C@@H](OC(=O)C(O)(c2ccccc2)c2ccccc2)C1	-6%
COc1ccc(/C=C(\C#N)c2nc3ccccc3c(=O)[nH]2)cc1OC	1%
O=C(c1ccc(N2CCN(C(=O)c3ccccc3)CC2)cc1)c1cccc(F)c1	2%
COC(=O)C(CC(C)C)NC(=O)/C=C/c1ccccc1Cl (stereo not given)	-7%
CNC[C@H]1Oc2ccc(NC(=O)Cc3cn(C)c4ccccc34)cc2CC(=O)N([C@@H](C)CO)C[C@H]1C	1%
Cc1onc(-c2c(F)cccc2Cl)c1C(=O)Nc1cccc(S(=O)(=O)NCc2ccco2)c1	-3%
O=C(NCc1ccc(F)cc1)C(=O)NCC1OCCCN1S(=O)(=O)c1cccs1 (stereo not given)	4%
Cc1ccc(NS(=O)(=O)c2cccc(C(=O)NNC(=O)c3ccco3)c2)c(C)c1	2%
CCOc1ccc(C2N(c3ccc(OC)cc3)C(=O)C3CCCN32)cc1OC (stereo not given)	-5%
CC(NC(=O)COC(=O)c1cc(S(=O)(=O)N2CCOCC2)ccc1F)c1ccccc1 (stereo not given)	-24%
O=C(/C=C/c1ccccc1)c1ccc2c3c(cccc13)CC2	-12%
O=C(Nc1ccccc1N1CCOCC1)c1ccc(Cl)c(S(=O)(=O)N2CCCC2)c1	3%
COc1cc(Cl)c(C)cc1NC(=O)CSc1ccc(C)cc1	8%
CN1CCN(c2ncc3nc(CCc4ccccc4)c(=O)n(Cc4cccs4)c3n2)CC1	?
O=C(NCCc1c[nH]c2ccccc12)C(=O)NCC1CCCO1 (stereo not given)	18%
CN1/C(=C\C(=O)Nc2ccc(Br)cc2)C(C)(C)c2ccccc21	-4%
N#Cc1cccc(-c2ccc3ncnc(N4CCNCC4)c3c2)c1	-14%
CCCCc1ccc(Nc2cc(C)nc(-n3nc(C)cc3C)n2)cc1	23%
Cc1ccccc1NC(=O)Cn1c([N+](=O)[O-])cnc1C	-26%

Reprinted at random: 2 entries already listed.
SMILES	VDR inhibitor
N#Cc1cccc(-c2ccc3ncnc(N4CCNCC4)c3c2)c1	-14%
CN1CCN(c2ncc3nc(CCc4ccccc4)c(=O)n(Cc4cccs4)c3n2)CC1	?

Some of these compounds in order of molar mass, rising.
SMILES	VDR inhibitor
CC(C)(C)C(=O)/C=C/Nc1ccccc1O	-15%
COCCCNC(=O)c1ccccc1C(F)(F)F	?
O=C(Oc1cccnc1)c1ccc(Cl)c(Cl)c1	5%
Cc1ccccc1NC(=O)Cn1c([N+](=O)[O-])cnc1C	-26%
CC1(C)CC(/C=C/c2ccccc2)=Nc2ccccc2N1	?
CCCCNS(=O)(=O)CCNCCc1ccccc1	-5%
COC(=O)c1cc(=O)nc2sc3cc(OC)ccc3n12	18%
COC(=O)C(CC(C)C)NC(=O)/C=C/c1ccccc1Cl (stereo not given)	-7%
O=C(NCCc1c[nH]c2ccccc12)C(=O)NCC1CCCO1 (stereo not given)	18%
c1ccc(CCc2nn3c(Cc4ccccc4)nnc3s2)cc1	79µM*
C[N+]1(C)CCC[C@@H](OC(=O)C(O)(c2ccccc2)c2ccccc2)C1	-6%
Cc1ccc(NC(=O)C(C)c2cccc(C(=O)c3ccccc3)c2)cc1 (stereo not given)	14%
CN(C)CCCN1c2ccc([N+](=O)[O-])cc2CCc2cc([N+](=O)[O-])ccc21	?
CCOc1ccc(C2N(c3ccc(OC)cc3)C(=O)C3CCCN32)cc1OC (stereo not given)	-5%
O=C(c1ccc(N2CCN(C(=O)c3ccccc3)CC2)cc1)c1cccc(F)c1	2%
O=C(CCNC(=O)c1ccc(Br)cc1)NNC(=O)c1ccccc1	-9%
CN1CCN(c2ncc3nc(CCc4ccccc4)c(=O)n(Cc4cccs4)c3n2)CC1	?
CSCCC(NS(=O)(=O)c1ccccc1F)C(=O)N1CC=C(c2ccccc2)CC1 (stereo not given)	2%
Cc1onc(-c2c(F)cccc2Cl)c1C(=O)Nc1cccc(S(=O)(=O)NCc2ccco2)c1	-3%
CCN(CC)C(=O)[C@H]1C[C@H](CC(=O)NCc2ccc(OC)c(OC)c2)C(=O)N2CCc3c([nH]c4cc(-c5ccco5)ccc34)[C@]12C	-3%

Next part.
SMILES	VDR inhibitor
CCOc1[nH]n(-c2ccc(Cl)cc2)c(=O)c1C=NCC(=O)OC	-8%
CC1(C)SC(=S)N(/N=C/c2ccccc2)C1N(O)C(=O)Nc1ccc([N+](=O)[O-])cc1 (stereo not given)	-9%
O=C(NC1CCCCCC1)c1cccc(COCC(F)(F)F)c1	-16%
O=c1c2ccccc2nnn1CSc1nnc(C2COc3ccccc3O2)n1-c1ccccc1 (stereo not given)	-12%
Nc1c(-c2cccc(Cl)c2)cnc2c(-c3ccccc3)cnn12	-15%
CC(C)c1ccc(OCC(O)CN2CCN(c3ccccc3)CC2)cc1 (stereo not given)	20%&0%
Cc1noc(C)c1COc1cccc(C(=O)OC(C)C(=O)Nc2c(C)n(C)n(-c3ccccc3)c2=O)c1 (stereo not given)	5%
CC(C)CN1CC2(CCN(C(=O)c3cnccn3)CC2)C1	2%
O=C(COC(=O)c1ccc(Br)o1)NCc1ccc(F)cc1	16%
Cc1ccc(NC(=O)c2c(C)nn(-c3ccccc3)c2-n2cccc2)c(Cl)c1	-6%
O=C(N/N=C/c1cccnc1)C1CCCCC1	-5%
COc1ccc(C(CNC(=O)COc2cccc(C)c2)N2CCCC2)cc1 (stereo not given)	0%
C=CCn1cc(C(=O)NCc2cccnc2)c(=O)c2cc(S(=O)(=O)N(CC)CC)ccc21	-30%
COc1ccc(NC(=O)CCN2CCN(S(=O)(=O)c3ccc(Cl)cc3)CC2)cc1	5%
CCOc1ccc(CCNC(=O)COC(=O)c2sccc2C)cc1OCC	-9%
Cc1ccccc1Nc1sc(C(=O)Nc2cccc(Cl)c2)c(N)c1C(N)=O	-12%
COc1ccc(C2=NOC(C(=O)Nc3c(C)n(C)n(-c4ccccc4)c3=O)C2)cc1 (stereo not given)	-1%
O=C(c1ccco1)N(Cc1cccnc1)c1nc2c(F)cc(F)cc2s1	14%
COc1ccc(Cl)cc1NS(=O)(=O)c1cc(Br)cc2c1N(C(=O)C1CC1)CC2	-8%
O=C(CN1C(=O)NC2(CCCC2)C1=O)OCc1ccc(Cl)c(Cl)c1	1%
COc1nc(-c2ccccc2)cc(-c2ccccc2)n1	4%
CCOc1cc(NC(=S)Nc2ccccc2OC)c(OCC)cc1NC(=O)c1ccccc1C	-4%
NS(=O)(=O)c1ccc(-c2ccc(/C=N/Nc3ccc(C(=O)O)cc3)o2)cc1	-1%
COc1c(C(CC(C)C)OC(C)=O)ccc2c1C(=O)OCc1cc(C)cc(O)c1O2 (stereo not given)	-8%
CCN=C(NCC)SC1CC(=O)N(c2ccc(OCC)cc2)C1=O (stereo not given)	-11%
COCCNC(=O)Cn1cnc2c(cnn2-c2ccc(C)cc2)c1=O	22%
COc1ccc(-c2c(-c3cc(OC)cc(OC)c3)n(C)c3ccc(-c4ccc(OC)c(F)c4)cc23)cc1	-24%
CCCC(=O)N=C1SC2CS(=O)(=O)CC2N1c1ccc(C(C)=O)cc1 (stereo not given)	21%
CCN1CCN(c2cc(C)c3cc(NC(=O)CCC(=O)N4CCN(c5ccccc5OC)CC4)ccc3n2)CC1	-1%
CCOc1ccc(CCNC(=O)COC(=O)c2c(C)nn(-c3ccccc3)c2C)cc1OCC	-9%
O=C1COc2cc(ccc2[N+](=O)[O-])Oc2ccc(cc2Cl)C(=O)CCCCO1	-9%
COc1ccc(C)cc1NC(=O)COC(=O)Cc1ccc(-c2ccccc2)cc1	-16%
CCN(CC)CCNC(=O)Cn1c(-c2ccccn2)nc2ccccc21	-3%
CCOc1ccc(N2CC(C(=O)N3CCc4ccccc43)CC2=O)cc1 (stereo not given)	-4%
COc1cc2c(cc1OC)CN(CC(=O)NC(=O)NCc1ccco1)CC2	-4%
CCCNC(=O)c1cnc2sc(N3CCCCC3)nn2c1=O	-5%
CCCCOc1ccc(C2C3CN(C(=O)OCC)CC=C3C(C#N)=C(N)C2(C#N)C#N)cc1OC (stereo not given)	-14%
CCc1ccc(C(=O)C(C)OC(=O)Cc2n[nH]c(=O)c3ccccc23)cc1 (stereo not given)	-13%
COc1c(C)cc(S(=O)(=O)N2CCOCC2)c(C)c1C	-19%
COc1cc(NC(=O)CN(C)S(=O)(=O)c2cccs2)cc(OC)c1	1%
COc1ccc(-c2cc(C(F)(F)F)nc(N3CCN(C)CC3)n2)cc1	-7%
COc1ccccc1OCCC(=O)NCc1ccc2c(c1)OCO2	1%
O=C(NCc1cccnc1)c1cccc(S(=O)(=O)N2CCOCC2)c1	4%
CCCCOc1cccc(-c2cc(C(=O)NNC(=S)NCC)c3ccccc3n2)c1	-4%
O=C(O)c1ccc2nc(-c3cc4cc(F)ccc4oc3=O)[nH]c2c1	?
CC(C)(C)n1c(=O)[nH]c2c(c1=O)CCC2	7%
CC1CCCCN1CC(=O)c1c[nH]c2ccccc12 (stereo not given)	10%
Cc1cc(C(=O)CN2CC(C)OC(C)C2)c(C)n1-c1ccccc1 (stereo not given)	-16%
Cc1cccc(C(=O)NC(=O)Nc2c(C)cc(C)nc2C)c1	-2%
O=c1[nH][nH]c(-c2ccccc2)c1C=Nc1ccc(OC(F)(F)F)cc1	-18%
Cc1cc(Cl)c(S(=O)(=O)N2CCCCCC2)cc1OCC(=O)NC1CCCCC1	2%
O=C(c1c(F)cccc1F)N(C1CCCCC1)C1CCCCC1	-22%
Cc1c(NC(=O)COc2cccc3c2OC(C)(C)C3)c(=O)n(-c2ccccc2)n1C	-4%
O=C(c1n[nH]c2ccccc12)N1CCCCC1	-21%
Cc1ccccc1-n1ccnc1SCC(=O)NCc1ccco1	-15%
COc1ccccc1CN(C)CC(=O)NC(=O)NC1CCCCC1	-15%
Cc1cc(Cl)ccc1C(=O)C1CCCN(C(=O)c2cnsn2)C1 (stereo not given)	-17%
O=C(CCc1ccncc1)N1CCCC(Nc2ccc(F)c(F)c2)C1 (stereo not given)	-19%
c1ccc(OCc2nc(-c3ccccc3)no2)cc1	13%
CC(C)OC(=O)CC(=O)CSc1nc2c(cc1C#N)CCCCC2	6%

Carrying on:
SMILES	VDR inhibitor
CC(C)c1ccc(NC(=O)N2CCC(c3nc4ccccc4o3)CC2)cc1	-8%
O=[N+]([O-])c1ccc(NN=Cc2ccccc2O)nc1	-1%
COC(=O)[C@@H](NC(=O)Nc1ccc(C(C)=O)cc1)C(C)C	-8%
COc1ccc(NC(=O)CS(=O)CC(=O)NCC2OCCc3ccccc32)cc1 (stereo not given)	12%
Cc1nn(-c2ccccc2)c(C)c1/C=N/NC(=O)c1ccccc1NS(=O)(=O)c1cccs1	-14%
CCOc1ccccc1N1CCN(C(=O)c2c(CC)noc2C)CC1	-13%
O=C(c1ccccc1)N1CCC(=O)N1c1ccccc1	-6%
CCCCOc1ccc(NC(=O)C2CC=CCC2C(=O)O)cc1 (stereo not given)	11%
Cc1ccccc1Cn1c(=O)n(Cc2ccco2)c(=O)c2ccccc21	-24%
CC(=O)N1Cc2ccccc2CC1C(=O)OCC(=O)c1c(N)n(C)c(=O)n(C)c1=O (stereo not given)	-2%
CCOC(=O)c1[nH]c(=S)[nH]c1C	-10%
COc1cccc(N2C(=NC(=O)CCc3ccccc3)SC3CS(=O)(=O)CC32)c1 (stereo not given)	-2%
CCOC(=O)C1=C(O)/C(=C/c2ccc(OCC(=O)O)c(OCC)c2)SC1=Nc1ccccc1	?
O=S(=O)(Nc1cccc(S(=O)(=O)N2CCCC2)c1)c1ccc(Cl)cc1	-10%
O=C(CCN1C(=O)c2ccccc2C1=O)NCCCn1ccnc1	-7%
CCC(C)NC(=O)c1cc2cc(S(=O)(=O)N3CCCCC3)ccc2n1C (stereo not given)	14%
Cc1cc(C)c(C)c(S(=O)(=O)N[C@@H](C)C(=O)OCC(N)=O)c1C	-17%
CC12CC(c3ccccc3O1)C(C(=O)N1CCOCC1)C(=O)N2 (stereo not given)	20%

High-throughput results as filed in PubChem BioAssay.

These rows are one share of the data. The share of hits here may be higher or lower than overall.
